2A firefly = lowers the firefly signal of an FMDV 2A StopGo reporter; HEK cells with a luciferase reporter of 2A StopGo recoding; Potency, µM (top dose mostly 57.5 µM), without a hit: at the highest dose signal change, negative = less light; 120,000 compounds, 0.23% hits; active = well fitted falling curve with a large enough effect; inconclusive = small, poorly fitted or top-dose-only effect; inactive = no such curve, though single readings can be large or run the other way; further: nearly all actives have a fitted effect of over 60% in size; overnight with compound
2A Renilla = lowers the Renilla signal of an FMDV 2A StopGo reporter. HEK cells with a luciferase reporter of 2A StopGo recoding. Potency, µM (doses to about 57.5 µM), for the others: top-dose signal change, negative = less light. 120,000 compounds, 0.32% hits. AID 1745857; active means well fitted falling curve with a large enough effect; inconclusive means small, poorly fitted or top-dose-only effect; inactive means no such curve, though single readings can be large or run the other way; further: nearly all actives have a fitted effect of over 55% in size; overnight with compound
The depositor's hits bear a star; u = inconclusive; & = joins results of further samples; [ ] = another dose, or the depositor's remark. On the % scale 0 is the no-effect control and ±100 the full control effect; potency means the concentration at half of the fitted maximal effect.

SMILES	2A firefly	2A Renilla
CC(=O)c1ccc(-c2ccc(C(=O)O)o2)cc1	u	26%
CCn1nc(C(=O)Nc2ccc(OC)c(Oc3ccc(OC)cc3)c2)c2ccccc2c1=O	16%	3%
O=C(NCc1ccc(F)cc1)c1ccc2nc(N3CCCCC3)sc2c1	52%[activator]	21%
Cc1ccc(NC(=O)Cn2cc(C(=O)C3CC3)c3ccccc32)cc1	-22%	-5%
CCOC(=O)c1c(C)[nH]c(CCC(=O)NCc2ccc(CC)cc2)c1C	-7%	26%
CN(C)c1ncnc2scc(-c3ccc(Cl)cc3)c12	u	u
Cc1cc(N2CCN(Cc3nc(C(C)(C)C)no3)CC2)nc(C(C)C)n1	u	u
Cc1ccc2nc(N3CCNCC3)c(-n3nc(C)cc3C)nc2c1	-9%	-5%
O=C(c1ccc2c(c1)CCN2S(=O)(=O)c1ccccc1)N1CCN(c2cccc(Cl)c2)CC1	-12%	42%[activator]
CCOc1ccc(C(=O)c2cn(Cc3ccccc3OC)c3ccc(F)cc3c2=O)cc1	-5%	-1%
Cc1ccccc1CNC(=O)CN1C(=O)CCCc2ccccc21	114%[activator]	32µM*
Cc1ccc(C)c(N2CCN(C(=O)Cn3ncc4ccsc4c3=O)CC2)c1	-15%	-27%
Clc1ccc(-c2noc(CCc3nc4ccccc4[nH]3)n2)cc1	-14%	u
CCC(Sc1ncccc1C(=O)Oc1ccccc1Cl)C(=O)Nc1ccccc1OC (stereo not given)	-18%	-2%
Clc1ccccc1CSc1nncn2c1cc1occc12	14%	6%
Cc1ccc2nc(N(Cc3cccnc3)C(=O)COc3ccccc3)sc2c1	23%	10%
COc1ccc(CNC(=O)CCc2ncc(-c3ccccc3)o2)cc1	9%	8%
O=C(O)CCc1ccc(-c2ccc(Br)cc2)n1-c1ccccc1O	-8%	-8%
CCCCC(=O)Nc1cc(-c2nc3ccccc3o2)ccc1OC	0%&31%	10%&7%
COc1cc(NC(=O)[C@H](C)n2c(=O)[nH]c3ccccc3c2=O)cc(OC)c1	2%	0%
COc1ccc(S(=O)(=O)N2CCSC2c2cc(OC)ccc2OC)cc1 (stereo not given)	-11%	-9%
COc1ccc(CNC(=O)c2ccc3c(c2)CCN3S(=O)(=O)c2ccccc2)cc1	-22%	156%[activator]
CCC(C(=O)NCCc1ccccc1)n1nc(C)n2c(cc3sccc32)c1=O (stereo not given)	14%&3%	38%&44%[activator]
CCc1cccc2c(-c3ccccc3)nc(SCC(=O)Nc3ccccc3)nc12	-14%	-11%
Oc1ccccc1-c1ccccc1	-5%	1%

One compound at a time, as listed above. Values in the order: 2A firefly, 2A Renilla
Listed for COc1cc(NC(=O)[C@H](C)n2c(=O)[nH]c3ccccc3c2=O)cc(OC)c1 = 2%, 0%
Listed for CCn1nc(C(=O)Nc2ccc(OC)c(Oc3ccc(OC)cc3)c2)c2ccccc2c1=O = 16%, 3%
Listed for CCC(Sc1ncccc1C(=O)Oc1ccccc1Cl)C(=O)Nc1ccccc1OC (stereo not given) = -18%, -2%
Listed for Cc1ccccc1CNC(=O)CN1C(=O)CCCc2ccccc21 = 114%[activator], 32µM*
Listed for CCOc1ccc(C(=O)c2cn(Cc3ccccc3OC)c3ccc(F)cc3c2=O)cc1 = -5%, -1%

Other results follow.
SMILES	2A firefly	2A Renilla
O=C(NCCCN1CCCC1=O)c1cc2cc(Cl)ccc2[nH]1	97%[activator]	-3%
CCC1CCCCN1C(=O)c1nn(-c2ccc(OC)cc2)c(=O)c2c1c1ccccc1n2C (stereo not given)	-4%	25%
COc1ccc(-c2nc(CCNC(=O)c3c(F)cccc3Cl)cs2)cc1	-25%	-9%
Cc1cnc2c(S(=O)(=O)NCC(C)N3CCOCC3)cccc2c1 (stereo not given)	-4%	76%[activator]
Cc1cccc(C)c1OCc1cc(=O)n2c(-c3ccccc3)csc2n1	18%	7%
CC[C@H](C)[C@H](NC(=O)c1ccc(Cl)cc1)C(=O)OCc1ccc(C(N)=O)cc1	1%	24%
O=S(=O)(c1ccc(F)c(F)c1)N1CCN(C/C=C/c2ccccc2)CC1	-3%	-4%
CC(CC#N)N1CCN(C(=O)c2cc3ccccc3[nH]2)CC1 (stereo not given)	0%	7%
CC(=O)Nc1ccc(NC(C)C(=O)Nc2ccc(Cl)cn2)cc1 (stereo not given)	0%	-15%
CCc1cc2c(cc3c(=O)n(CC(=O)NC4CCCCC4)ncn32)s1	-9%	-12%
Cc1ccc(NC(=O)c2c(C)nc3sc(C(=O)Nc4ccc(F)cc4)c(N)c3c2-c2ccccc2Cl)c(C)c1	-1%	-4%
O=S1(=O)c2ccc(N3CCSCC3)cc2Oc2ccccc2CN1Cc1cn(Cc2ccccc2C(F)(F)F)nn1	4%	121%[activator]
O=C(NCC#Cc1ccccc1)c1cccc2cccnc12	65%[activator]	215%[activator]
Cc1ccc(C2=Nc3ccccc3N(CC(=O)NCc3ccc(Cl)cc3)C(=O)C2)cc1C	59%[activator]	-1%
CCc1cc(C(=O)OC)c(NC(=O)Cc2ccccc2Cl)s1	23%	64%[activator]
CCn1cc(C(=O)Nc2ccc(C(C)C)cc2)c2cc(OC)c(OC)cc2c1=O	-12%	2%
COc1ccc(-c2cc(C(=O)O)c3c(C(C)C)noc3n2)cc1OC	0%	6%
Cc1ccc(C(=O)c2cn(Cc3ccccc3)c3c(F)cc(F)cc3c2=O)cc1	0%	3%
CCCn1cnc2nc(CSc3ccccc3NC(=O)COc3cccc(F)c3)cc(=O)n21	-4%	0%
N#Cc1ccc(CN2CCC(c3ccnn3CCO)CC2)c(F)c1	18%	1%
CCc1c(C)sc(NC(=O)C#Cc2ccccc2)c1C#N	20%	-12%
CC(=O)N1CCN(c2oc(-c3cccc(C)c3)nc2S(=O)(=O)c2ccccc2)CC1	25%	118%[activator]
CCCCCCCCCCCCS(=O)CC(O)c1ccccc1 (stereo not given)	13%	2%
CCOC(=O)C1=C(CS(=O)(=O)c2c(C)cc(C)cc2C)NC(=O)NC1c1cccc(OC)c1 (stereo not given)	-20%	-6%
COCCn1c(SCC(=O)Nc2ccc(C(F)(F)F)cc2)nc2c([nH]c3ccccc32)c1=O	-6%	-7%

At a glance, some entries already given:
SMILES	2A firefly	2A Renilla
Cc1ccc2nc(N3CCNCC3)c(-n3nc(C)cc3C)nc2c1	-9%	-5%
O=C(c1ccc2c(c1)CCN2S(=O)(=O)c1ccccc1)N1CCN(c2cccc(Cl)c2)CC1	-12%	42%[activator]
CCOc1ccc(C(=O)c2cn(Cc3ccccc3OC)c3ccc(F)cc3c2=O)cc1	-5%	-1%

More compounds follow:
SMILES	2A firefly	2A Renilla
COc1ccccc1CNC(=O)c1ccc(N2CCCC2)c(NC(=O)NCc2ccc(C)cc2)c1	-12%	-4%
COCCCNC(=O)c1cnn(-c2ccccc2Cl)c1C1CCN(C(=O)OC(C)(C)C)CC1	-5%	10%
Cc1ccc(CNC(=O)c2cc3cc(C)ccc3[nH]2)cc1	2%	13%
Cc1cccc(N2CCN(C(=O)C3CCN(S(=O)(=O)c4c(C)noc4/C=C/c4ccccc4F)CC3)CC2)c1C	-17%	4%
CC1CCN(CCCCNC(=O)/C=C/c2ccc(OC(F)(F)F)cc2)CC1	u	-5%
COc1cc2c(cc1OC)C(COc1ccc3c(C)cc(=O)oc3c1)N(C(=O)c1ccc(Cl)cc1)CC2 (stereo not given)	-23%	-9%
CCCC(=O)C1=C(c2ccc(C)c(C)c2)N(C(=O)CCC)n2c(CC)nnc2S1	-20%	-12%
Cc1ccc(CCNC(=O)c2ccc(CSCc3ccccc3Cl)o2)cc1	-20%	-11%
COc1ccccc1N1CCN(C(=O)c2cc3c(=O)n(Cc4cccs4)ccc3nc2C)CC1	-12%	118%[activator]
Cc1ccc(NC(=O)CSc2nnc(-c3ccc(Br)cc3)o2)c(C)c1	1%	-8%
COc1ccc(OC)c(C(=O)COC(=O)CCC(=O)c2ccc(Cl)cc2)c1	-15%	-2%
O=C(NCC(F)(F)F)c1cc(-c2ccc3c(c2)OCCO3)nc2ccccc12	7%	-2%
COc1ccc(OC(=O)C(C)Oc2cccc(C)c2C)cc1 (stereo not given)	13%	2%
COc1ccc(OCC(O)Cn2c(NCCO)nc3c2c(=O)n(C)c(=O)n3C)cc1 (stereo not given)	u	u
O=C(Cc1cn2ccsc2n1)Nc1ccc(S(=O)(=O)N2CCCCCC2)cc1	7%	52%[activator]
Cc1ccc2oc(-c3cc(NC(=O)c4cc([N+](=O)[O-])ccc4N4CCOCC4)ccc3Cl)nc2c1	23%	2%
Cc1ccc2c(c1)NC(=O)C(CC(=O)Nc1ccccc1Cl)O2 (stereo not given)	-8%	-2%
Cn1c(SCc2ccccc2F)nc2c([nH]c3ccccc32)c1=O	-10%	-12%
COC(=O)c1ccc(OC(=O)C2(c3ccccc3)CCCC2)cc1	5%	5%
Cc1ccc(C(C)NC(=O)c2ccc(Br)s2)cc1 (stereo not given)	-7%	13%
O=C(Cn1ncc2c3ccccc3n(Cc3ccccc3)c2c1=O)N1CCCCCC1	8%	4%
CCOC(=O)CC(NS(=O)(=O)c1cc(-c2cc(C)no2)ccc1C)c1ccc(C)cc1 (stereo not given)	0%	431%[activator]
CC(Sc1nc(-c2ccco2)nc2ccccc12)C(=O)N(C(C)C)C(C)C (stereo not given)	-3%	-3%
Cn1c(C(=O)NC2CCN(C3CC3)C2)cc2ccccc21 (stereo not given)	181%[activator]	2%
COc1ccccc1C(=O)OCc1ccc(F)cc1	79%[activator]	6%
SMILES	2A firefly	2A Renilla
O=C(N1CC23C=CC(CC2CC12CCCCC2)O3)C(F)(F)F (stereo not given)	-1%	10%
COc1ccc(OC)c(C(c2c(O)c3ccccc3oc2=O)c2c(C)n(C)n(-c3ccccc3)c2=O)c1 (stereo not given)	-9%	0%
O=C(CCCCn1c(=O)c2ccccc2n(Cc2ccccc2F)c1=O)NCc1ccccc1Cl	-18%	-16%
CCOC(=O)c1cccc(NC(=O)CC2C(=O)N(c3ccc(OC)cc3)C(=O)N2C2CCCC2)c1 (stereo not given)	-5%	-6%
CC(OC(=O)/C=C/c1cccc2cccnc12)C(=O)NC(C)(C)C (stereo not given)	-3%	-2%
O=C(c1sc2cc(F)ccc2c1Cl)N1CCC2(CC1)OCCO2	4%	18%
NC(=O)CCC(NC(=O)C1(c2ccccc2)CCCC1)C(N)=O (stereo not given)	-10%	-5%
Cn1cc(C(C(=O)O)N2CCN(c3ccc(Cl)cc3)CC2)c2cc(C(=O)O)ccc21 (stereo not given)	-3%	-12%
COc1ccc(C2Nc3c(C)cc(C)cc3-c3cc(C)nn32)cc1OC (stereo not given)	-9%	-17%
COc1cc(NC(=O)CCn2c(=O)oc3ccccc32)cc(OC)c1OC	-9%	6%
CCC(=O)N1c2ccccc2CC1C(=O)N1CCN(c2ccccc2F)CC1 (stereo not given)	-19%	-5%
COc1ccc(OC)c(NC(=O)c2oc(=O)c3ccccc3c2-c2ccccc2)c1	-19%	6%
O=C(CSCc1nc2cccnc2n1C1CCCCC1)NCc1cccc(Br)c1	-16%	12%
S=C(NCCC(c1ccccc1)c1ccccc1)Nc1ccccc1	-17%	180%[activator]
O=C1CSc2ccc(S(=O)(=O)Nc3cccc(Cl)c3Cl)cc2N1	6%	145%[activator]
Cc1ccc(Nc2c(-c3ccc(O)cc3)nc3cccc(C)n23)cc1	41%[activator]	20%
CC(C)(C)OC(=O)N1CCC(c2c(C(=O)NCCCN3CCc4ccccc4C3)cnn2-c2ccccc2)CC1	-24%	-11%
O=S(=O)(NCCc1csc(-c2cccnc2)n1)c1ccc(Cl)s1	u	17%
CCCCN(CC)CCCNC(=O)c1cc2c(-c3ccc(OC)c(OC)c3)nn(C)c2s1	-10%	-11%
CC(=O)Nc1ccc(S(=O)(=O)NCc2cccn2Cc2cccc(C)c2)cc1	-1%	180%[activator]
O=C(CSc1nnc(-c2cccs2)n1-n1cccc1)Nc1ccccc1	-2%	-8%
COCCS(=O)(=O)c1ccc(C(=O)N(C)C)cc1	16%	-7%
Cc1ccc(S(=O)(=O)c2nnn3c2nc(N2CCN(c4ccc(F)cc4)CC2)c2cc(Cl)ccc23)cc1C	-11%	-5%
Cc1ccc(C)c(C(=O)Nc2ccc(-c3nc4ccccc4s3)cc2)c1	153%[activator]	15%
Cc1ccc2nsnc2c1NC(=O)c1ccc(Cl)cc1Cl	18%	13%

Ordered by SMILES length (falling): 3 of the compounds above.
SMILES	2A firefly	2A Renilla
Cc1ccc2oc(-c3cc(NC(=O)c4cc([N+](=O)[O-])ccc4N4CCOCC4)ccc3Cl)nc2c1	23%	2%
CCn1nc(C(=O)Nc2ccc(OC)c(Oc3ccc(OC)cc3)c2)c2ccccc2c1=O	16%	3%
O=C(NCC#Cc1ccccc1)c1cccc2cccnc12	65%[activator]	215%[activator]

The list goes on.
SMILES	2A firefly	2A Renilla
Cc1nc2ccccc2cc1C(=O)N(C)Cc1ccccc1	10%	82%[activator]
Cc1cc2c(cc1C)CSC(c1ccccc1OC(=O)c1cccc3ccccc13)SC2	0%	-8%
O=C(c1ccc(F)cc1)N1CCC(c2nc(-c3ccc(S(=O)(=O)N4CCCC4)cc3)no2)CC1	-11%	-10%
Cn1c(=O)[nH]c(=O)c2c1nc(Sc1ccccc1)n2Cc1ccccc1	12%	7%
CC(C)(C(=O)N1CCN(C(=O)c2cc(=O)[nH]c3ccccc23)CC1)c1ccccc1	1%	-3%
CC(C)(C)c1ccc(O)c(C(C)(C)C)c1O	23%	15%
COc1nc2ccccc2nc1N1CCC(C(=O)Nc2c(F)cccc2F)CC1	6%	7%
COC(=O)c1ccc(C)c(NC(=O)c2sc(COc3ccc(C)cc3)nc2C)c1	25%	-7%
CN(C(=O)c1ccc2c(c1)N(Cc1ccc(F)cc1)C(=O)c1ccccc1S2(=O)=O)C1CCCCC1	-3%	55%[activator]
COc1ccc(-c2cc(C(F)(F)F)nc(SCC(=O)NCc3ccc(Cl)cc3)n2)cc1	-2%	-6%
O=C(CNS(=O)(=O)c1ccc(Br)s1)N1CCN(c2ccc(F)cc2)CC1	u	36%[activator]

Assay outcomes: PubChem BioAssay, National Center for Advancing Translational Sciences (NCATS)
